Sfp inh – inhibitors of Bacillus subtilis Sfp phosphopantetheinyl transferase | Potency, µM, without a hit: max response, negative = inhibition, most hits filed as inhibitors | actives 3.5% (n = 310,000) | AID 1490 | Biochemical Sfp PPTase activity, qHTS; active = well fitted inhibition curve with a large enough effect; inconclusive = small, poorly fitted or top-dose-only effect, or another doubt; inactive = no such curve, though single readings can be large or run the other way;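 note: the enzyme is Sfp with the accession as filed and its product quenches rhodamine fluorescence; potency is the fitted concentration of half-maximal effect; 0% = enzyme reaction without inhibitor and -100% = no enzyme wells; top concentration of the series not given in the record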
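After 15 min at room temperature with compound, 15 nM Sfp received 5 uM rhodamine-CoA plus 12.5 uM BHQ-2-ybbR (50 mM Hepes pH 7.6, 10 mM MgCl2). Rate came from the fluorescence difference over 30 min, ex 525/em 598 nm.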
D2 ag – agonists of human D2 dopamine receptor (beta-arrestin). actives 0.084% (n = 360,000). DiscoveRx PathHunter D2 beta-arrestin, luminescence, 90 min; 100% = 57 uM dopamine signal. activation, % (no concentration beside the values). AID 624465; in the data active = activation above about 40%; inconclusive = about 15% to 40%; inactive = below about 15%; note: compound concentration not given in the record; the text of the record calls up to 30% inactive
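DiscoveRx PathHunter D2 beta-arrestin cells (2,100/well) attached overnight, then compound-stimulated 90 min at 37 C in HBSS/10 mM HEPES/0.1% Tween-20 buffer; beta-galactosidase complementation read by luminescence after 1 h at ambient temperature. Dopamine 57 uM final (EC100) as control.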
D2 potentiator – potentiates the human D2 dopamine receptor allosterically; potentiation, % (no concentration beside the values); DiscoveRx D2 beta-arrestin cells, luminescence, 90 min; 100% = 57 uM dopamine signal; actives 0.23% (n = 360,000); P14416; AID 624464; active = potentiation of 50% or more; inconclusive = 30% to 50%; inactive = 30% or less;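 note: compound concentration not given in the record; tested on top of an EC20 dose of dopamine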
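PathHunter D2 cells, attached overnight at 37 deg C, received compound in DMSO plus dopamine at EC20 (50 nM final) for 90 min at 37 deg C. Beta-arrestin recruitment was read as luminescence after 1 h with detection reagent at ambient temperature.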
TRPV1 potentiator – human TRPV1 potentiation | Q8NER1 | TRPV1-expressing cells, Fluo-8 calcium influx, capsaicin EC20 potentiation; host cell line not named in the record; control for the full effect not named in the record | actives 0.02% (n = 320,000) | potentiation, % at 8.33 µM; active means potentiation above 80%; inconclusive means 30% to 80%; inactive means below 30%; note: 0% is about no effect
Target sequence (Q8NER1 whole entry, looked up): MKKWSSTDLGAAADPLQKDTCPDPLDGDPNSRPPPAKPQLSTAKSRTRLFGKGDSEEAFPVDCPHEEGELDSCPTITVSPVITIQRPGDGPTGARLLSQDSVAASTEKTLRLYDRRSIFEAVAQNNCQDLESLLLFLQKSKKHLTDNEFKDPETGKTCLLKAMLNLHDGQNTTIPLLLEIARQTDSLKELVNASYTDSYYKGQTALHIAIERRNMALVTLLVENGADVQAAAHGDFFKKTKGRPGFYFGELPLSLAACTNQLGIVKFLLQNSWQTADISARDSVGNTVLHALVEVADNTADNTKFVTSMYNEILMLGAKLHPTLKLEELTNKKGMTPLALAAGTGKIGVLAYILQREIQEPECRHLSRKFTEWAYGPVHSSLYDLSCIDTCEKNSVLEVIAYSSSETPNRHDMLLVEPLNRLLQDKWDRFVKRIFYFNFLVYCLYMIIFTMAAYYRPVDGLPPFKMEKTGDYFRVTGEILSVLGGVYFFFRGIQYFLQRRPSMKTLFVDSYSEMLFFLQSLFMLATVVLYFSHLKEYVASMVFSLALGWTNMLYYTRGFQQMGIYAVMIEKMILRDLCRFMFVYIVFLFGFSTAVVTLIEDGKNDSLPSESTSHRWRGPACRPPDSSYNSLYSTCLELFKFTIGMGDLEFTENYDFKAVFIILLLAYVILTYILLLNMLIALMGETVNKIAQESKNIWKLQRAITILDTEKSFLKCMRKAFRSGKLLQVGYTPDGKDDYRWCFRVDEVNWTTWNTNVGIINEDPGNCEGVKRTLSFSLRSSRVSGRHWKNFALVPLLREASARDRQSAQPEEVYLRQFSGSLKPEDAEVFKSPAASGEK
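Fluo-8 calcium influx in TRPV1-expressing cells, kinetic read (ex 480/em 520 nm). Compound added and read 3 min for agonist activity, followed by capsaicin at EC20 final and 2 min further read for enhancement.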
Six1-Eya2 inh – Six1/Eya2 interaction inhibition; AID 651725; actives 0.56% (n = 360,000); AlphaScreen GST-Six1/His-Eya2 binding, biochemical; hits give low values; control for the full effect not named in the record; activity change, % (test concentration not listed); Q15475+O00167; in the data active = activity change below about -65%; inconclusive = about -30% to -65%; inactive = above about -30%; note: % is set by controls: 0 for no effect and ±100 for the full control effect; compound concentration not given in the record
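Six1/Eya2 binding was read as AlphaScreen signal after compounds were pinned into GST-Six1 plus His-tagged Eya2 (5X stock 250/500 nM) in pH 8.0 Tris/NaCl/TCEP buffer, beads added, then incubated 1 h, 37 C, dark.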
PINK1 expr mod – changes PINK1 expression; PINK1 immunofluorescence, high-content cytometry, 24 h; actives 0.2% (n = 410,000); Potency, µM (series often up to 76.6 µM), without a hit: at the highest dose activation (PINK1 increase), hits mostly activators; active = well fitted activation curve with a large enough effect; inconclusive = small, poorly fitted or top-dose-only effect; inactive = flat fitted curve, though single readings scatter; cell line not stated here;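 note: potency is the fitted concentration of half-maximal effect; % of control where 0% means no effect; nearly all actives have a fitted effect of over 65% in size; a mitochondrial uncoupler was the plate control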
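PINK1 protein level read as immunofluorescence by microplate cytometer in a fixed, stained stable cell line after 24 h exposure to five compound concentrations, with CCCP as control.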
CtBP-E1A blk – inhibitors of CtBP/E1A interaction; AlphaScreen GST-E1A/His-CtBP binding, 1536-well; hits give low values; control for the full effect not named in the record; activity change, % (concentration not given with the values); actives 0.49% (n = 340,000); AID 651724; in the data active means activity change below about -65%; inconclusive means about -30% to -65%; inactive means above about -30%; note: % is set by controls: 0 for no effect and ±100 for the full control effect
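GST-E1A and His-tagged CtBP (125 nM each as 5X stock) were preincubated with pin-transferred compound for 2 h at 37 °C in the dark, then glutathione donor and nickel acceptor beads were added for 1 h before AlphaScreen reading.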
Starred values were filed as active, the others as inactive; ? = inconclusive; . = not tested or not shown; [ ] = dose if it differs, or a comment. Hits appear at their usual frequency. Share with any hit: about 3.7%.

SMILES | Sfp inh | D2 ag | D2 potentiator | TRPV1 potentiator | Six1-Eya2 inh | PINK1 expr mod | CtBP-E1A blk
CN(C(=O)c1ccccc1Cl)C1CCCCC1 | 14.0% | -0.6 | 8.0 | -18.3 | -1.9 | 10.7%[38.3 µM] | 9.0
CCCOc1ccc(/C(O)=C2/C(=O)C(=O)N(c3ccccn3)C2c2ccc(OC)cc2)cc1C (stereo unspecified) | 2.4% | -1.2 | -4.6 | 22.9 | -7.4 | -0.5% | 0.0
Cn1c(NC(=O)c2ccccc2)c(-c2cccs2)c(=O)c2ccccc21 | 12.9% | -1.3 | -3.5 | -0.8 | 0.3 | 3.5%[38.3 µM] | -1.0
CCn1cc([N+](=O)[O-])c(C(=O)N2N=C3/C(=C/c4cccs4)CCCC3C2c2cccs2)n1 (stereo unspecified) | 2.5% | -1.8 | -4.1 | 13.0 | -5.5 | -5.6%[38.3 µM] | -6.9
Nc1ccc2oc(CCc3ccccc3)nc2c1 | -28.0% | -0.9 | ? | 5.6 | -2.9 | -1.4% | -2.0
O=C(O)c1cccc(N2C(=O)/C(=C/c3ccc([N+](=O)[O-])cc3)C=C2c2ccccc2)c1 | ? | ? | -6.4 | ? | 1.1 | -0.2% | .
O=C(Nc1ccc(NC(=S)NC(=O)c2ccco2)cc1)c1ccc(Br)cc1 | . | -2.8 | -0.1 | . | -1.0 | 1.8% | 0.5
Cc1ccc2c(c1)N(C(=O)CCC(=O)NCc1ccccn1)CC(C)O2 (stereo unspecified) | -2.0% | -0.1 | -3.8 | 26.8 | 0.6 | 2.7% | 0.5
COc1ccc2[nH]c3c(c2c1)CCN1C(=O)C(CC(=O)NCCN2CCOCC2)C[C@H](C(=O)N2CCCCC2)[C@@]31C (stereo partly specified) | . | -4.6 | 0.1 | . | -0.8 | 0.5% | 2.4
CC(NC(=O)C1CCC(CNc2c(N3CCOCC3)c(=O)c2=O)CC1)c1ccccc1 (stereo unspecified) | 12.1% | -6.5 | -17.2 | 0.9 | ? | 3.9% | ?
COc1ccc(C(=O)COC(=O)[C@H](C)NS(=O)(=O)c2ccc(NC(C)=O)cc2)cc1OC | . | -2.6 | -19.5 | . | -1.5 | 2.5% | 3.1
Fc1ccccc1N1CCN(C(c2ccccn2)c2nnnn2C2CCCCC2)CC1 (stereo unspecified) | -23.2% | -1.5 | 2.4 | -8.5 | -4.0 | -0.3%[38.3 µM] | 10.0
CCOC(=O)C1CCN(Cc2cc(=O)oc3cc(C)c(Cl)cc23)CC1 | 12.7% | -0.8 | -2.8 | -12.9 | 0.3 | -0.4% | 4.8
CC(C)(C)c1ccc(-c2n[nH]c(=S)n2C2CCCC2)cc1 | 4.7% | -2.2 | -15.7 | -7.1 | -12.2 | 12.4%[38.3 µM] | 3.3
COC(=O)C(C)N(C(=O)c1cccc(Cl)c1)c1c(C)cccc1C (stereo unspecified) | ? | -4.3 | -9.5 | -11.3 | 2.0 | 2.5%[38.3 µM] | 0.6
C/C(=C\C(=O)c1ccc(Br)cc1)NCc1ccccc1 | -2.0% | -1.3 | -6.6 | 10.5 | 17.4 | 2.5% | 11.9
C#CC1(NC(=O)N(C)C)CCCCC1 | 8.9% | 3.1 | -7.6 | 3.8 | 12.0 | -1.0% | .
COc1ccc(N(C(=O)c2ccccc2OC)C2C=CS(=O)(=O)C2)c(OC)c1 (stereo unspecified) | 3.1% | -0.5 | -9.1 | -10.9 | 28.0 | 15.2%[38.3 µM] | 51.0
CCn1nnnc1SCC(=O)c1cccc(OC)c1 | -7.4% | -0.1 | -3.0 | -10.2 | -3.5 | 1.4% | 0.1
Cc1cc(C(=O)N2CCc3ccccc32)c2ccccc2n1 | 5.0% | -0.5 | -13.2 | 25.0 | 6.4 | 3.2% | 1.1

The final six compounds of the part before open the next one.
SMILES | Sfp inh | D2 ag | D2 potentiator | TRPV1 potentiator | Six1-Eya2 inh | PINK1 expr mod | CtBP-E1A blk
COC(=O)C(C)N(C(=O)c1cccc(Cl)c1)c1c(C)cccc1C (stereo unspecified) | ? | -4.3 | -9.5 | -11.3 | 2.0 | 2.5%[38.3 µM] | 0.6
C/C(=C\C(=O)c1ccc(Br)cc1)NCc1ccccc1 | -2.0% | -1.3 | -6.6 | 10.5 | 17.4 | 2.5% | 11.9
C#CC1(NC(=O)N(C)C)CCCCC1 | 8.9% | 3.1 | -7.6 | 3.8 | 12.0 | -1.0% | .
COc1ccc(N(C(=O)c2ccccc2OC)C2C=CS(=O)(=O)C2)c(OC)c1 (stereo unspecified) | 3.1% | -0.5 | -9.1 | -10.9 | 28.0 | 15.2%[38.3 µM] | 51.0
CCn1nnnc1SCC(=O)c1cccc(OC)c1 | -7.4% | -0.1 | -3.0 | -10.2 | -3.5 | 1.4% | 0.1
Cc1cc(C(=O)N2CCc3ccccc32)c2ccccc2n1 | 5.0% | -0.5 | -13.2 | 25.0 | 6.4 | 3.2% | 1.1
COc1ccc([N+](=O)[O-])cc1NCC(=O)c1ccc(C)cc1 | -11.6% | -3.5 | -7.2 | 9.4 | 5.9 | 7.4% | 0.0
CC1CN(C(=O)COC(=O)c2cncc(Br)c2)CC(C)O1 (stereo unspecified) | . | -3.5 | -11.9 | . | 2.3 | 2.0% | -8.0
COc1ccc(NC(=O)CCNC(=O)c2ccco2)cc1OC | 2.0% | -4.0 | -9.2 | 0.8 | -3.7 | 1.1% | 4.9
O=C(NC1CCSC1=O)c1cccc(Cl)c1 (stereo unspecified) | 11.1% | -6.5 | -5.5 | -6.6 | -3.9 | -0.8% | 2.9
CC(C)(C)NC(=O)NC(=O)COC(=O)CNS(=O)(=O)c1ccc(Br)cc1Cl | 9.8% | -4.0 | -4.0 | -1.8 | 27.9 | 1.5% | .
CCCn1c(=O)[nH]c(=O)c2c1nc(-c1ccc3c(c1)OCCO3)n2CCN1CCOCC1 | 5.3% | -5.0 | -6.4 | 1.7 | 7.3 | 0.6% | 7.3
CC(=O)c1ccc(OCC(=O)Nc2ccccc2N2CCCC2)cc1 | 4.2% | 0.1 | 15.4 | -10.5 | -7.8 | 4.3% | -0.1
Fc1ccccc1COc1ccccc1/C=N/Nc1nc(N2CCCC2)nc(N2CCCC2)n1 | ? | -6.7 | -1.6 | -9.0 | -5.0 | 13.1% | 3.9
CCCC(=O)NC(c1cccc([N+](=O)[O-])c1)c1ccc2cccnc2c1O (stereo unspecified) | . | -2.6 | -12.8 | . | -91.3* | 1.6% | ?

Shown with two lines to a compound: entries from further up
The line under a structure holds: Sfp inh | D2 ag | D2 potentiator | TRPV1 potentiator | Six1-Eya2 inh | PINK1 expr mod | CtBP-E1A blk
Fc1ccccc1N1CCN(C(c2ccccn2)c2nnnn2C2CCCCC2)CC1 (stereo unspecified)
→ -23.2% | -1.5 | 2.4 | -8.5 | -4.0 | -0.3%[38.3 µM] | 10.0
CCn1nnnc1SCC(=O)c1cccc(OC)c1
→ -7.4% | -0.1 | -3.0 | -10.2 | -3.5 | 1.4% | 0.1
CCn1cc([N+](=O)[O-])c(C(=O)N2N=C3/C(=C/c4cccs4)CCCC3C2c2cccs2)n1 (stereo unspecified)
→ 2.5% | -1.8 | -4.1 | 13.0 | -5.5 | -5.6%[38.3 µM] | -6.9
O=C(NC1CCSC1=O)c1cccc(Cl)c1 (stereo unspecified)
→ 11.1% | -6.5 | -5.5 | -6.6 | -3.9 | -0.8% | 2.9
